# Source: PubChem BioAssay
# T cruzi repl: blocks replication of Trypanosoma cruzi; 300,000 tested, 1.4% active; T. cruzi beta-gal in NIH3T3, luminescence, 90 h; inhibition, % (concentration not given with the values);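 active = mean inhibition across valid replicates above about 55%, limit read from the data; inconclusive = mean below that limit but half or more replicates reach it; inactive = mean below it, under half of replicates reach it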;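 also: signal also drops with host cell toxicity which is not excluded here; 0% = plate median of DMSO wells and 100% = zero luminescence signal; higher percent means less beta-gal luminescence so fewer parasites; stock transfer was 50 nL into about 50 µL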
# Calb FLC: C. albicans growth modulation with fluconazole | C. albicans CaCi-2 (fluconazole-resistant clinical isolate) + fluconazole, Alamar Blue growth, 48 h | growth inhibition, % (test concentration not listed) | 300,000 tested, 0.57% active | AID 1979;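 active = most replicates above 75%; inconclusive = exactly half above 75%; inactive = most below 75%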;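 also: all wells also contain fluconazole at 8 µg/ml as a sub-toxic cotreatment; 0% = median of DMSO wells and 100% = median of geldanamycin control wells; wells of about 8 µL received 7.5 nL stock; the first replicate is given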
# UCH37 DUB inh: inhibitors of human deubiquitinating enzyme UCH37; 330,000 tested, 0.33% active; AID 588478; Q9Y5K5; purified proteasome/UCH37, Ub-AMC cleavage fluorescence; inhibition, % (no concentration beside the values);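 active = mean of two replicates above 20%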;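 also: 0% = compound-free wells with enzyme and 100% = wells lacking proteasome; stock transfer was 100 nL into about 20 µL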
# Target sequence (Q9Y5K5 whole entry, looked up): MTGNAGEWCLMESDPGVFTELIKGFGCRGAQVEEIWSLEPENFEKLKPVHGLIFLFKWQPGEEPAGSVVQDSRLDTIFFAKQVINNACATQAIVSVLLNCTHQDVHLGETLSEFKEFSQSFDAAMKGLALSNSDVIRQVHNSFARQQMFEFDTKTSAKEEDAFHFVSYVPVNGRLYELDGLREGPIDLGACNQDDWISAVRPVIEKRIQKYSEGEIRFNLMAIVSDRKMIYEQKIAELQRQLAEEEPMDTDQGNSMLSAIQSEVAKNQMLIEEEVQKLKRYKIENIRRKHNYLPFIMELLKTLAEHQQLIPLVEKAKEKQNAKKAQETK
#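 Signal – fluorescence, ex 355 nm, em 460 nm · System – Proteasome-bound UCH37 · Input – 0.15 nM proteasome as dispensed · Timing – 30 min preincubation with enzyme, 25 min cleavage at room temperature · Read-out basis – percent inhibition of cleavage signal versus uninhibited and no-proteasome wells · Medium – Tris-HCl pH 7.4 with ATP-MgCl2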
# LANA-H2A inh: blocks KSHV LANA binding to histone H2A/H2B; 320,000 tested, 0.6% active; inhibition, % (no concentration beside the values); Q9QR71; cell-free LANA-H2A/H2B peptide, fluorescence polarization; in the data active = inhibition mostly above about 10%, no sharp cut-off; inactive = mostly below about 6.7%;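 also: stock transfer was 7.5 nL into about 10 µL; 0% = median of vehicle wells and 100% = median of positive control wells; one replicate is shown; the record names a cut of 25% in any replicate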
# Bfl-1 A1 inh: inhibitors of the anti-apoptotic protein A1, read as caspase activation; MEF A1-2A-BIM cells, Caspase-Glo 3/7 luminescence, 3 h; percent of clofoctol response, vehicle zero; caspase activation, % (no concentration beside the values); 330,000 tested, 0.066% active; AID 2462;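 active = over half of replicate activation scores above 10%, or exactly half above 10 with the replicate mean above 10; inconclusive = replicate mean below 10 yet half the replicates above 10; inactive = over half of replicates below 10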;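 also: wells of about 30 µL received 50 nL stock; many hits fall short of the cut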
# Beta apoptosis: blocks beta cell apoptosis; INS-1E cytokine-induced death, ATP luminescence, 48 h; percent of positive-control rescue, neutral wells zero; protection from apoptosis, % (test concentration not listed); AID 435005; 300,000 tested, 0.8% active;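 active = all replicates at 75% or more, or half of them and the mean; inconclusive = half reach 75% but not the mean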;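 also: 0% = cytokine-treated negative control wells and 100% = positive control rescue; higher means more ATP so stronger rescue from cytokine killing; wells of about 40 µL received 100 nL stock; the first replicate is given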
# B2AR ag: agonists of human beta-2 adrenergic receptor inducing internalization | P07550 | Am2.2-beta2AR cells, FAP receptor internalization, flow cytometry; reference of the scale not given here | response, % (test concentration not listed) | 340,000 tested, 0.43% active | AID 504454;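 active = response above a set limit, near 3 SD of response in nonfluorescent compounds, cut at about 42% in these data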;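 also: stock transfer was 100 nL into about 11 µL; a reference agonist was the positive control; negative values mostly stem from fluorescent compounds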
# Target sequence (P07550 whole entry, looked up): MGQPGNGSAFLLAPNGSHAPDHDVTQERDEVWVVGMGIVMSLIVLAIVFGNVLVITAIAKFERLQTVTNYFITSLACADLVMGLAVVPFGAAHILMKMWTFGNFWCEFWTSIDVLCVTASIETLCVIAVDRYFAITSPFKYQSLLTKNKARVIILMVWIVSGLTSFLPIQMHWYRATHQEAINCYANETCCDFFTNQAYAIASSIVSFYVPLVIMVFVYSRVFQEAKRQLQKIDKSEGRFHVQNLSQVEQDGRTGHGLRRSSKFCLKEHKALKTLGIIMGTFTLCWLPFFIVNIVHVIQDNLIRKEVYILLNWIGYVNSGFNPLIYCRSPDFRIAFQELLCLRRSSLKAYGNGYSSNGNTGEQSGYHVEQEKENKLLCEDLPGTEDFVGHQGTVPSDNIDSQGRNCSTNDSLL
# RanGTP-Impb inh: inhibitors of RanGTP-importin-beta interaction, primary screen, biochemical, FRET, CFP-Ran, YFP-importin-beta, homogeneous. cell-free CFP-Ran/YFP-importin-beta FRET ratio. inhibition, % (concentration not given with the values). 300,000 tested, 1.1% active. AID 2216;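 active = most replicates above 15%; inconclusive = exactly half above 15%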;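 also: 0% = DMSO wells and 100% = Ran loaded with GDP instead of GTP; wells of about 40 µL received 100 nL stock; the first replicate is given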
# * hit, by the source's call; ? = inconclusive; . = not tested or not shown.
# Values run as follows: T cruzi repl	Calb FLC	UCH37 DUB inh	LANA-H2A inh	Bfl-1 A1 inh	Beta apoptosis	B2AR ag	RanGTP-Impb inh
1: Nc1nc(F)cc(N2CCCCCC2)n1
    -3.8	-1.9	-1.7	1.8	0.0	-3.5	-8.5	6.8
2: CCOc1ccc(-n2nc3ccc(NC(=O)CC)cc3n2)cc1
    ?	0.7	-216.6	-0.5	0.6	-5.8	-9.1	0.0
3: CCN(CC)CCOC(=O)c1ccc2c(c1)OCCO2
    5.9	31.3	5.1	3.1	-0.1	-7.1	-5.6	0.0
4: CC12CCC(C/C1=N\OC(=O)c1ccc(F)cc1)C2(C)C (stereo unspecified)
    8.8	?	.	-0.9	0.0	-1.9	-1.6	2.5
5: O=C(NCC1COc2ccccc2O1)c1ccc(NC(=O)C(c2ccccc2)c2ccccc2)cc1 (stereo unspecified)
    84.7*	-11.4	4.3	-2.1	0.2	21.1	-0.7	3.3
6: Cc1nn(CC(=O)Nc2cccc(S(N)(=O)=O)c2)c(C)c1[N+](=O)[O-]
    -5.1	-2.1	3.7	2.3	-0.2	-11.0	0.7	1.9
7: CCC(=O)c1ccc(OCC(=O)NCCC2=CCCCC2)c(OC)c1
    16.6	8.3	1.2	-13.0	0.2	11.2	-21.1	2.0
8: O=C1[C@@H]2Cc3c([nH]c4ccccc34)C(c3ccccc3)N2C(=O)CN1C1CCN(Cc2ccccc2)CC1 (stereo partly specified)
    ?	10.1	3.7	-3.5	0.2	12.1	41.1	?
9: O=C(CS(=O)(=O)c1ccccc1)NC1CCCCC1
    6.1	-5.9	-2.2	4.3	-0.4	-4.1	2.9	2.6
10: CCC(=O)Nc1ccccc1C(=O)N1CCOCC1
    -8.8	3.5	0.5	-2.8	0.6	-1.6	0.2	0.5
11: O=C(O)CC12CC3CC(C1)CC(n1ncc(NCc4ccc(F)cc4Cl)c(Cl)c1=O)(C3)C2
    4.0	26.7	6.2	3.3	-0.7	-0.7	-0.8	1.0
12: COc1cccc(Nc2nnc(SCn3nnc4ccccc4c3=O)s2)c1
    29.3	6.4	4.2	-0.9	-0.4	-11.2	-9.8	3.8
13: Cc1ccc(S(=O)(=O)C2(C(=O)Nc3ccc(Br)cc3)CC2)cc1
    -13.4	1.5	0.0	0.2	-0.3	4.9	1.0	2.7
14: O=C(Nc1ccccc1F)C1CCCN1S(=O)(=O)c1ccc(Cl)cc1 (stereo unspecified)
    .	.	0.4	3.9	-0.2	-6.4	-6.0	.
15: COC(=O)c1ccc(NC(=O)CSc2nccn2CCc2ccccc2)cc1
    -6.0	-5.6	5.0	-1.9	0.7	1.2	1.3	-1.6
16: COc1ccc(NC(=O)c2sccc2SCc2cccc(C(F)(F)F)c2)cc1
    69.2*	2.2	-0.7	-0.8	0.9	0.6	16.3	4.6
17: CC(C)N(CC(N)=O)C(=O)c1sc2cc(F)ccc2c1Cl
    -5.0	11.2	2.9	1.4	-0.2	-2.8	-2.1	-0.2
18: Cc1[nH]n(-c2ccc(Cl)cc2)c(=O)c1/C=N/c1nnc(-c2ccccc2)s1
    9.0	-9.1	.	4.1	-7.7	4.5	-5.1	-4.1
19: O=C(NCc1ccccn1)NC12CC3CC(CC(C3)C1)C2
    -2.4	-9.2	3.3	1.1	0.5	1.5	-3.8	-0.2
20: CCOc1ccc(NC(=O)COC(=O)CCCc2c[nH]c3ccccc23)cc1
    -10.2	7.9	3.8	-3.2	0.0	-5.6	7.3	-2.0
21: COC(=O)NC(=S)N1CCOCC1
    4.0	11.3	-2.6	5.7	1.2	-11.0	2.5	?
22: S=c1[nH]nc(Cc2ccccc2)n1Cc1ccco1
    -15.3	-1.5	1.1	-2.1	-0.3	-12.2	2.5	-0.8
23: COc1cc(SC)ccc1C(=O)N1CCN(c2ccccc2F)CC1
    -7.1	-7.3	0.4	-2.4	-1.8	-3.8	-5.0	-1.9
24: Cn1c(=O)c2c(nc3sccn32)n(C)c1=O
    -4.0	1.5	3.8	-0.8	2.3	-0.1	-5.5	3.2
25: Cn1c(SCC(=O)N2CCOCC2)nnc1-c1ccccc1
    10.8	-7.2	2.1	-0.1	0.2	-3.3	1.1	4.4
26: O=C(Cc1ccc(S(=O)(=O)N2CCCC2)s1)N1CCOCC1
    1.0	2.8	1.2	-4.4	-0.6	-8.7	-8.7	2.3
27: CCCCc1ccc(S(=O)(=O)Nc2ccc(C)c(NS(C)(=O)=O)c2)cc1
    -3.3	3.1	2.3	3.3	-1.1	-6.5	34.0	3.9
28: Cc1ccc2nc(SC(C)C(=O)Nc3cccc([N+](=O)[O-])c3)[nH]c2c1 (stereo unspecified)
    -3.1	6.3	6.1	0.2	-1.2	-13.2	18.6	-11.3
29: Cn1c(C(=O)Nc2ccccc2)cc2sccc21
    -14.4	-9.6	3.3	5.0	-3.1	5.6	7.3	4.4
30: Cc1cccc(OCC(=O)Nc2cc(C)ccc2O)c1
    1.0	-6.0	-5.8	-4.8	-1.1	-5.4	6.4	4.2

# Values run as follows: T cruzi repl	Calb FLC	UCH37 DUB inh	LANA-H2A inh	Bfl-1 A1 inh	Beta apoptosis	B2AR ag	RanGTP-Impb inh
31: NS(=O)(=O)c1ccc(NC(=O)CSc2ccccc2)cc1
    -13.6	43.9	-0.6	-1.0	0.2	-8.8	-0.2	2.9
32: CCOC(=O)N1CCC(N2C(=O)c3ccccc3C2Nc2ccc(C)cc2)CC1 (stereo unspecified)
    2.8	6.3	0.4	-3.4	-0.3	3.5	-3.5	?
33: O=C(/C=C/c1ccccc1[N+](=O)[O-])N1CCN(c2ccc(F)cc2)CC1
    -8.3	7.5	0.4	-0.8	0.0	2.1	-9.4	23.5*
34: CCCc1cc(=O)c2c(O)cccc2o1
    -14.1	-5.3	5.0	-10.2	-0.1	-4.1	1.3	7.1
35: Cc1ccc(Cl)cc1NC(=S)N(CCCN1CCOCC1)Cc1ccco1
    6.2	-1.6	0.0	7.7	0.4	-2.6	10.9	6.2
36: O=C(OCC(=O)N1CCC(Cc2ccccc2)CC1)c1cc(Br)ccc1O
    .	.	4.6	-0.5	-0.5	5.8	-3.5	.
37: CCOC(=O)CCc1c(C)c2ccc(OCc3nn[nH]n3)cc2oc1=O
    -18.4	3.0	-261.3	0.1	-0.3	1.1	1.0	-4.9
38: COc1cc(Cl)cc(C2NC(=O)NC(C)=C2C(C)=O)c1OCC(=O)O (stereo unspecified)
    -7.0	17.1	1.0	2.5	1.7	0.3	9.1	-3.3
39: CCOc1ccc2ccccc2c1CNCCN1CCOCC1
    4.0	-7.0	6.7	4.7	0.9	-2.0	12.2	2.1
40: Nc1nc2c(s1)CCc1c-2cnn1-c1ccccc1
    -10.8	10.3	.	-2.8	0.4	-16.2	25.5	4.5
41: COC(=O)CNc1cc(S(=O)(=O)N2CCCCC2)ccc1Oc1cccc(C)c1
    17.2	3.2	3.5	-0.9	-0.8	0.9	1.4	?
42: Cc1cccc(Oc2ncc(-c3ccc(Cl)cc3)cn2)c1C
    5.1	12.3	0.8	0.6	-1.5	0.0	6.2	0.4
43: CC(C)(C)C(=O)Nc1ccc(N2CCN(c3ccc(C(F)(F)F)cn3)CC2)nc1
    16.0	-2.3	-16.0	-0.8	0.3	13.2	-5.1	-1.4
44: O=C(O)C/C(=C\c1cc2c(cc1Br)OCO2)c1nc2ccccc2s1
    5.5	68.9	0.5	0.5	0.1	-0.7	7.9	2.8
45: Cc1[nH]c2ccc(C(=O)OC(C)C(=O)NC3CCCCC3C)cc2c1C (stereo unspecified)
    .	.	-4.0	1.7	-0.1	-7.4	-4.3	.
46: Cc1cccc(C)c1NC(=O)NN1C(C)CCCC1C (stereo unspecified)
    7.5	12.6	4.5	-6.4	?	-0.6	5.8	-1.0
47: CC(C)NC(=O)c1ccc2c(c1)N(CC(=O)N1CCCC1)C(=O)C(C)(C)O2
    4.7	-2.5	.	3.3	0.5	-7.6	2.8	2.8
48: Cc1cc(C)nc(NC2=NCCN2C(=S)Nc2ccc(C)c(C)c2)n1
    11.9	4.0	2.8	-1.6	1.4	-0.2	22.6	4.1
49: Cc1ccc(Sc2ncccc2C(=O)O)c(C)c1
    -0.6	4.1	5.2	4.7	-0.4	-1.4	3.2	1.7
50: COc1ccc(C(C)=O)cc1CN(c1ccccc1OC)S(=O)(=O)c1cccs1
    18.2	-1.4	4.0	3.8	0.4	-9.5	-20.1	4.9
51: Cc1ccc(NC(=O)CNC(=O)c2ccco2)c(Cl)c1
    -8.9	.	-2.8	-4.1	-0.1	-7.8	2.7	5.5
52: Cc1ccc(C(=O)N/C(=C\c2cccc([N+](=O)[O-])c2)C(=O)Nc2cccc(C(=O)O)c2)cc1
    -3.6	-1.0	0.5	2.1	0.6	-5.1	6.0	-2.1
53: O=C(O)c1ccc(NC(=S)NC(=O)c2cccc(COc3ccccc3)c2)cc1
    -3.8	8.3	1.6	4.5	-0.4	3.9	-6.8	2.4
54: Cc1ccc(Cl)cc1Nc1nc(-c2sc(NC(=O)c3cccc(Cl)c3)nc2C)cs1
    -13.1	2.8	.	1.2	-11.2	5.3	.	3.2
55: COc1ccc(Cl)cc1S(=O)(=O)N1CCCC(C(=O)NCc2ccncc2)C1 (stereo unspecified)
    5.3	2.3	1.5	-0.6	-0.5	-2.4	-4.5	0.0
56: Cc1nc(N2CCN(c3ccccc3)CC2)nc2c1C(=O)CCC2
    5.2	?	3.3	-8.2	0.4	3.7	-1.0	2.5
57: Oc1ccc(-c2[nH]ncc2-c2nc3ccccc3s2)c(O)c1
    -33.1	-1.0	-16.7	3.4	0.6	-3.0	-12.0	2.6
58: COC(=O)c1scc(S(=O)(=O)C(C)(C)C)c1N
    -18.6	6.0	-4.3	0.1	0.5	-10.4	3.4	1.1
59: CNc1nc(-c2c(C)n(C)c3ccc(OC)cc23)cs1
    34.3	6.3	1.7	-2.9	0.5	.	11.6	0.2
60: Cc1ccc(C(C(=O)NC2CCCCC2)N(CC2CCCO2)C(=O)CCCC(=O)Nc2ccccn2)cc1 (stereo unspecified)
    8.8	-5.1	3.2	-1.2	-0.1	-2.1	-4.8	-1.0

# Values run as follows: T cruzi repl	Calb FLC	UCH37 DUB inh	LANA-H2A inh	Bfl-1 A1 inh	Beta apoptosis	B2AR ag	RanGTP-Impb inh
61: O=C(Nc1ccccc1-c1ccccc1)NC1CCN(C(=O)N2CCOCC2)CC1
    -12.6	23.5	1.6	0.6	-0.4	2.8	-1.5	1.8
62: COC(C[C@H]1O[C@H]1[C@H](O)[C@@H](C)OCc1ccccc1)OC
    -5.5	-2.1	3.2	.	.	.	2.5	2.0
63: COc1cc(C(N)=O)cc(Cl)c1OCc1ccccc1
    1.7	-7.1	1.5	-2.8	-1.0	-3.8	-5.5	?
64: Cc1ccc(N(C)S(=O)(=O)c2cccc(C(=O)NCC(c3ccco3)N3CCCC3)c2)cc1 (stereo unspecified)
    .	.	-0.2	-0.6	0.8	-5.1	4.1	.
65: O=C(C1=NN(c2ccccc2)C2C(=O)N(c3ccc(Cl)cc3)C(=O)C12)c1ccccc1 (stereo unspecified)
    .	.	-8.2	-8.4	1.3	2.0	7.7	.

# Hits appear at their usual frequency; overall some 4.3% were active at least once.
